# VDR inh: inhibitors of human vitamin D receptor. Potency, µM, for inactives: max response, negative = inhibition, usual class: inhibitors. AID 504847. actives 0.93% (n = 400,000). VDR-SRC2-3 peptide fluorescence polarization, 2 h; active means well fitted inhibition curve with a large enough effect; inconclusive means small, poorly fitted or top-dose-only effect, or another doubt; inactive means no such curve, though single readings can be large or run the other way; further: series mostly up to about 120 µM
# Target sequence (P11473 whole entry, looked up): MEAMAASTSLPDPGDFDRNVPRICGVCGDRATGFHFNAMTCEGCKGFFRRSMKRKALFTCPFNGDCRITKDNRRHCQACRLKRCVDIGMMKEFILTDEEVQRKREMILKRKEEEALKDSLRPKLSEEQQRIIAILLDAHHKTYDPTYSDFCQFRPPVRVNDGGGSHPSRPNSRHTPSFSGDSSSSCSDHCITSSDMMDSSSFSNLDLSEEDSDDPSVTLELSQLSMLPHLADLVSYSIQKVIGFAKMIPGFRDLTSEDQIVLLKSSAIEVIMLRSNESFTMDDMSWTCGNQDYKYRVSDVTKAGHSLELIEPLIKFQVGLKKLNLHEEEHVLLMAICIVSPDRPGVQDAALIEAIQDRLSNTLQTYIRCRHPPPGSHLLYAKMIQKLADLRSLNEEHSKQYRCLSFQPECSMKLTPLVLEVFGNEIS
#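 After 23 nl compound addition and a short centrifugation, plates sat for 2 hours at ambient temperature; polarization of fluorescence then indicated loss of VDR binding to peptide SRC2-3.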
# An asterisk follows results filed as active; ? = inconclusive; & = joins results of further samples; [ ] = dose if it differs, or a comment. On the % scale 0 is the no-effect control and ±100 the full control effect; potency means the concentration at half of the fitted maximal effect. Not all compounds are listed; the hit share may differ from the screen's.
SMILES,VDR inh
CC1(C)CC(=O)C=C(Nc2cccc(F)c2)C1,1%
NC(N)=N/N=C/c1ccc(OCc2ccccc2Cl)cc1,46%[activator]
CCC1Cc2c(nc(N)c3c(N)nc(N4CCCCC4)c(C#N)c23)O1 (stereo not given),0%
CCc1ccc(N2Cc3ccccc3C2)cc1,-17%
O=C(Nc1ccc2ccccc2c1)c1ccccc1O,-5%
COc1ccc(-c2nc(S(=O)(=O)c3ccc(Cl)cc3)c(N3CCCCCC3)o2)cc1,?
Cc1cc(=O)oc2c(C(=O)/C=C/c3ccccc3)c(O)ccc12,0%
N#CCc1nn(-c2ccc(Cl)cc2)c(N)c1C#N,-16%
COC(=O)c1ccc2[nH]c([C@H](C)O)c([C@H](C)O)c2c1,-10%
Cc1ccnc(SC2CC(=O)N(c3ccc(F)cc3)C2=O)n1 (stereo not given),5%
Cn1c(NCCO)nc2c1c(=O)n(Cc1ccc(F)cc1)c(=O)n2C,-3%
COc1ccc(-c2cc(C(F)F)n3ncc(C(=O)n4ccnc4C)c3n2)cc1,?
COC(=O)c1cccc(-n2c(C)cc(C=O)c2C)c1C,-15%
COc1ccccc1N(CC(=O)Nc1ccccc1)S(=O)(=O)c1cccs1,2%
CN(C)CCNC(=O)c1ccc(-n2c(-c3ccccc3)cc3c2CCCC3)cc1,-6%
CCCOc1ccc(CC2C(=O)Nc3ccc(Br)cc32)cc1 (stereo not given),1%
CC(C)(C)NC(=O)CN(C(=O)C(=O)Nc1ccc2c(c1)OCCO2)N1CCOCC1,-8%
COc1cc(/C=C/c2ccc3cccc(O)c3n2)cc(Cl)c1OC,-5%
O=C(Cc1ccc([N+](=O)[O-])cc1)N1N=C(c2ccncc2)CC1(O)C(F)(F)F (stereo not given),?
CCCCn1c(C)cc2cc(O)ccc21,12%
Cc1nnc(NC(=O)C2CCN(C(=O)c3ccco3)CC2)s1,-4%
CCCSc1nnc(-c2ccccc2NC(=O)CC)c(=O)[nH]1,11%
O=C(CCS(=O)(=O)c1cccs1)N1CCCC1,7%
Cc1nc2ccc(NC(=O)c3cccnc3)cc2s1,12%
CCn1cc([N+](=O)[O-])c(C(=O)Nc2ccc(Br)cn2)n1,-5%
CCOC(=O)c1c(C)[nH]c(C)c1S(=O)(=O)NCC1CCN(Cc2cccc(Cl)c2)CC1,-14%
COc1ccccc1OCCC(=O)OCC(=O)Nc1ccc(Br)cc1F,-17%
O=C(NC(=S)NC1C2CC3CC(C2)CC1C3)C12CC3CC(CC(C3)C1)C2 (stereo not given),-14%
CCC(=O)c1ccc(OCC(=O)Nc2nc(C)cs2)cc1,-3%
COc1ccc(Cl)cc1NC(=O)COC(=O)C(CC(C)C)N1C(=O)C2CC=CCC2C1=O (stereo not given),-12%

# Copied from the list:
# `CC(C)(C)NC(=O)CN(C(=O)C(=O)Nc1ccc2c(c1)OCCO2)N1CCOCC1` @ VDR inh = -8%
# `COc1cc(/C=C/c2ccc3cccc(O)c3n2)cc(Cl)c1OC` @ VDR inh = -5%
# `COc1ccccc1OCCC(=O)OCC(=O)Nc1ccc(Br)cc1F` @ VDR inh = -17%

# More results.
SMILES,VDR inh
CC1(C)C(=O)Nc2ccccc2N1C(=O)COc1ncnc2c(Cl)cc(Cl)cc12,17%
CCOCCCNC(=O)CCCn1nc(C)n2c(cc3sccc32)c1=O,6%
CC1CCCCN1CCNC(=O)c1ccc2c(c1)N(Cc1ccccc1)C(=O)c1ccccc1S2(=O)=O (stereo not given),14%
CC12C=CC(=O)C=C1CCC1C2CCC2(C)C(C(=O)CO)CCC12 (stereo not given),13%
CC(/C=N/NC(=O)CSc1nc2ccccc2n1C)=C\c1ccco1,-11%
CNCCC(Oc1ccc(C(F)(F)F)cc1)c1ccccc1 (stereo not given),10%&-4%&-22%&-6%&-5%
CCN1C(=O)C2(C(C#N)=C(N)Oc3cc(C)oc(=O)c32)c2ccccc21 (stereo not given),-21%
CCn1c(CC(=O)Nc2ccccc2)n[nH]c1=S,25%
CCCCN(C)CCOc1ccccc1OCC,-3%
C=Cn1ccnc1P(=S)(c1ccc2c(c1)c1ccccc1n2CC)c1nccn1C=C,2%
CCOC(=O)c1c(-c2ccc(C)cc2)csc1NC(=O)CCSc1nnc2ccccn12,-21%
CNC(=O)CSc1nnc(-c2cccnc2)n1CCc1ccccc1,-14%
CCOc1cc(N2CCOCC2)c(OCC)cc1NC(=O)CSc1ccccc1C(=O)O,16%
CC1CCN(S(=O)(=O)c2cccc(C(N)=O)c2)CC1,-15%
C/C(=N/NC(=O)CN1CCN(Cc2ccccc2Cl)CC1)c1ccncc1,-2%
CC1Cc2nc(SCC(=O)N3CCCC3)n(C)c(=O)c2S1 (stereo not given),-4%
COc1cccc(C2=NN(S(C)(=O)=O)C(c3cn(-c4ccccc4)nc3-c3cccs3)C2)c1 (stereo not given),-1%
O=C(Nc1ccc(C(=O)N2CCC(O)(c3ccc(Cl)c(C(F)(F)F)c3)CC2)cc1)c1ccc(Br)o1,-15%
CC(=O)N1c2nc(-c3ccco3)nn2C2(CCCCC2)[C@@H]2CCCC[C@@H]21,4%
Cc1oc(-c2ccccc2Cl)nc1CS(=O)CC(=O)NCCc1ccccc1 (stereo not given),-17%
Nc1ncnc2nc(SCC(=O)Nc3ccccc3F)[nH]c12,3%
S=c1nc2ccccc2c2nc(-c3ccccc3Br)[nH]n12,-5%
COc1ccc(C(=O)N/N=C(\C)Cn2cnc([N+](=O)[O-])n2)cc1,1%
COC(=O)N/N=C/c1cccnc1,11%
CN1CCN(CC(=O)c2ccccc2F)CC1,-12%
O=C(NCCN1CCCCC1)Nc1ccccc1Cl,-8%
COC(=O)c1c(-c2snnc2C)n[nH]c1C,-13%
C=CCN(CC=C)C(=O)C1CC(=O)N(c2ccc(Br)cc2)C1 (stereo not given),-13%
CCOC(=O)C1CCN(C(=O)C2CCN(S(=O)(=O)c3cc(Cl)ccc3Cl)CC2)CC1,-5%
COCCNC(=O)CSc1c(C)cnc2c1c(=O)n(C)c(=O)n2C,8%
Clc1ccsc1-c1ccc2ccccc2n1,7%
c1ccc(Cc2nnc3sc(-c4ccncc4)nn23)cc1,4%
Cc1sc2ncn(CC(=O)NCCCC(=O)N3CCN(c4ccccc4F)CC3)c(=O)c2c1C,-16%
COCCn1c(=NC(=O)c2nc3ccccc3s2)sc2cc(S(C)(=O)=O)ccc21,4%
CC(=O)Nc1cccc(C(=O)NNC(=O)c2n[nH]c(=O)c3ccccc23)c1,-12%
Fc1ccc2ncc3c(-c4ccccc4)n[nH]c3c2c1,8%
COc1ccc(-c2cc(C(F)(F)F)nc(NCc3ccccc3)n2)cc1OC,-9%
CCCCn1nc(C(=O)NCC2COc3ccccc3O2)c2ccccc2c1=O (stereo not given),6%
N#C/C(=C\c1cccnc1)C(=O)Nc1ccc(S(N)(=O)=O)cc1,-2%
CCN1CCN(Cc2c(O)ccc3oc(C)c(C(=O)Nc4ccc(C)cc4C)c23)CC1,5%
Cc1cc(C(C)(C)C)ccc1OC(=O)C1=CC=CN2CCS(=O)(=O)N=C12,-7%
Cc1ccc(C)c(CN2C(=O)c3ccccc3S(=O)(=O)c3ccc(C(=O)NCCC4=CCCCC4)cc32)c1,-11%
Cn1nc(C(=O)Nc2ccc(F)c(Cl)c2)c2c1-c1ccccc1S(=O)(=O)C2,12%
O=C(Nc1ccc(C(=O)OC2CCCCC2)cc1)c1ccncc1,27%
CCCN1CC(=O)N2C(c3cccc(OC)c3OC)c3[nH]c4ccccc4c3C[C@H]2C1=O (stereo not given in full),-21%
CCN1C(=O)c2cccc3c(N)ccc1c23,-4%
COc1ccc(OC)c(NC(=O)NCCN2CCN(c3ccccc3)CC2)c1,-1%
COc1ccc(CNc2oc(COc3cccc(C)c3)nc2C#N)cc1,-25%
CC(C)OP(=O)(c1ccc(N(C)C)cc1)C(O)c1ccc(Br)cc1 (stereo not given),-21%
O=C(COc1ccc(F)cc1)Nc1ccccc1C(=O)OCc1cc(=O)n2ccsc2n1,18%
O=C(Nc1cccc(NC(=O)c2ccc(-c3ccc(Br)cc3)o2)c1)c1ccco1,3%
CCCCn1c(N)c(N(CC(C)C)C(=O)c2cc(-c3ccncc3)nc3ccccc23)c(=O)[nH]c1=O,-19%
COC(=O)c1ccc(C2C(Oc3ccccc3)C(=O)N2CCc2ccc(F)cc2)cc1 (stereo not given),14%
C(CCc1nn[nH]n1)CCC1CCCCC1,-10%
COc1ccc(C(=O)Oc2ccc(C(c3c(C)[nH][nH]c3=O)c3c(C)[nH][nH]c3=O)cc2)cc1,-25%
CN(C)Cc1c(C(=O)N/N=C/c2ccccc2OCc2c(F)cccc2Cl)nnn1-c1nonc1N,-15%
O=C1OCCN1N1CCOC1=O,-9%
CC(=O)Nc1cccc(N2C(=O)CCC2=O)c1,-15%
O=S(=O)(Nc1ccncc1Cl)c1cc(Cl)ccc1Cl,0%
CCOc1cc(C(=O)N2CCN(C/C=C/c3ccccc3)CC2)cc(OCC)c1OCC,8%
# Next part
SMILES,VDR inh
COc1ccc(CCn2c(C)cc(C(=O)COC(=O)c3ccc(NC(=O)CC#N)cc3)c2C)cc1,24%
COc1ccc(-c2cc(=O)oc3cc(OCC(=O)NCC4CCC(C(=O)O)CC4)ccc23)cc1 (stereo not given),0%
Cc1cc(NC(=O)C2CCN(C(=O)c3ccco3)CC2)ccc1Br,-16%
CCN(CC)C(=O)Cc1cc(C(=O)O)c2ccccc2n1,-3%
CCOC(=O)c1c(C)nc2sc3c(=O)n(-c4ccc(C(C)=O)cc4)cnc3c2c1-c1ccc(OC)cc1,6%
OC[C@H]1O[C@H](OC[C@H]2O[C@H](OC[C@H]3O[C@H](O[C@]4(CO)O[C@H](CO)[C@@H](O)[C@@H]4O)[C@H](O)[C@@H](O)[C@@H]3O)[C@H](O)[C@@H](O)[C@H]2O)[C@H](O)[C@@H](O)[C@H]1O,-5%
O=C(Nc1ccc(F)c(Cl)c1)c1ccccc1NC(=O)C1CCCCC1C(=O)O (stereo not given),-5%
CN(C)C(=O)N1CCC(C(=O)NCC2CCCO2)CC1 (stereo not given),3%
O=C(O)c1ccc(N/N=C/C=C/c2ccccc2[N+](=O)[O-])cc1,-18%
CN(C)S(=O)(=O)c1ccc2c(c1)N(CC(=O)N1CCC(C(N)=O)CC1)CCS2,-7%
O=C(N/N=C/c1ccc(-c2cccc([N+](=O)[O-])c2)o1)c1cccs1,9%
Cn1nc(-c2ccc(NCCO)c([N+](=O)[O-])c2)c2ccccc2c1=O,6%
COCCN(C(=O)COC(=O)c1cc(C)n(-c2ccccc2)c1C)c1c(N)n(Cc2ccccc2)c(=O)[nH]c1=O,5%
CC(C(=O)O/N=C(\N)c1cccnc1)c1ccc([N+](=O)[O-])cc1 (stereo not given),-13%
COc1ccc(CCN2CCCn3c2nc2c3c(=O)[nH]c(=O)n2C)cc1OC,-5%

# Compounds from the list above that contain a nitro group on carbon, in the order listed:
SMILES,VDR inh
O=C(Cc1ccc([N+](=O)[O-])cc1)N1N=C(c2ccncc2)CC1(O)C(F)(F)F (stereo not given),?
CCn1cc([N+](=O)[O-])c(C(=O)Nc2ccc(Br)cn2)n1,-5%
COc1ccc(C(=O)N/N=C(\C)Cn2cnc([N+](=O)[O-])n2)cc1,1%
O=C(O)c1ccc(N/N=C/C=C/c2ccccc2[N+](=O)[O-])cc1,-18%
O=C(N/N=C/c1ccc(-c2cccc([N+](=O)[O-])c2)o1)c1cccs1,9%
Cn1nc(-c2ccc(NCCO)c([N+](=O)[O-])c2)c2ccccc2c1=O,6%
CC(C(=O)O/N=C(\N)c1cccnc1)c1ccc([N+](=O)[O-])cc1 (stereo not given),-13%

# Next entries.
SMILES,VDR inh
O=[N+]([O-])c1cccc(-c2nnc3cccc(Cl)n23)c1,2%
Cc1ccc(C(=O)CSc2ccc(-c3cccnc3)nn2)cc1,-10%
O=c1[nH]c(SCc2cccc(Cl)c2)nc2ccccc12,-10%
CCCN1C(=O)c2ccccc2NC1c1ccc(OC)cc1OC (stereo not given),3%
Cc1cc(Cl)ccc1NC(=S)NC(C)(C)C,-7%
CC(=O)N1CCN(S(=O)(=O)c2cccc(C(=O)NNC(=O)COc3ccc(F)cc3)c2)CC1,-1%
COc1ccc(N2CCN(C(=O)NC(=O)c3ccc(Cl)cc3)CC2)cc1,1%
Cn1ccc(NC(=O)c2ccc(Cl)cc2)n1,-5%
COCCCNC(=O)CSC1=Nc2ccccc2C2=NC(c3ccccc3)C(=O)N12 (stereo not given),-13%
COc1ccc(C(=O)N2CCC3(CC2)CCN(c2ccccc2)CC3)cc1,-17%
CCOC(=O)c1c(N2C(=O)Nc3ccccc3N2O)n[nH]c1-c1cccc(Cl)c1,-13%
Cc1cc(C)cc(NC(=S)NCc2cccs2)c1,9%
COc1cccc(NC(=O)c2cccc(S(=O)(=O)N3CCN(Cc4ccccc4)CC3)c2)c1,11%
CCOP1(=O)OCC2OC(n3cnc4c(N)ncnc43)C(O)C2O1 (stereo not given),2%
O=C(NN1C(=O)C2C(C1=O)C1C=CC2C12CC2)c1ccc(Cl)cc1 (stereo not given),-6%
CC(C)Sc1ncc(S(=O)(=O)c2ccccc2)c(=O)[nH]1,6%
COc1ccc(C(=NN)c2ccc(OC)cc2)cc1,-15%

# 3 compounds out of the list above, sorted by the value under VDR inh, lowest first.
SMILES,VDR inh
COc1ccc(C(=NN)c2ccc(OC)cc2)cc1,-15%
COc1ccc(N2CCN(C(=O)NC(=O)c3ccc(Cl)cc3)CC2)cc1,1%
CC(C)Sc1ncc(S(=O)(=O)c2ccccc2)c(=O)[nH]1,6%
